Ecoli rRNA inh – selective bacterial rRNA inhibition in E. coli. E. coli WT GFP vs humanized-ribosome RFP mutants, fluorescence, 24 h; active compounds read low; DMSO median 0, no signal -100. GFP signal change (wild-type ribosome), % (no concentration beside the values). 350,000 tested, 1.6% active;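 active = significant combined selectivity score with lowered wild-type GFP, culture density cut under 30%, mutant RFP and density less affected; inactive = any of these conditions unmet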; note: one replicate is shown; some compounds called inactive have numbers as strong as hits
FGF22 binding – binders of recombinant human FGF22 by thermal shift | AID 651658 | SYPRO orange fluorescence; percent of sucrose octasulfate shift, DMSO zero | calls only at 9.99 µM | 340,000 tested, 1.5% active | Q9HCT0;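 active = melting point raised past a set limit in the mean and every replicate; three in four hits are not shown here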
Target sequence (Q9HCT0 whole entry, looked up): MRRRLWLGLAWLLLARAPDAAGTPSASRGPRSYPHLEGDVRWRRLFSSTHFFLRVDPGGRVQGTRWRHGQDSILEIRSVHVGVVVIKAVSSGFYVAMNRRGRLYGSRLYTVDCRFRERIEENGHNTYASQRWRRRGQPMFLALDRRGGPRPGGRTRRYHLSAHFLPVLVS
Ecoli rRNA inh OD600 – further read-out of Ecoli rRNA inh, marked with its call; OD600 change, %; measured here: OD600 growth;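 optical density of the mix in the first replicate; 0 = DMSO median and -100 = no signal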
Ecoli rRNA inh RFP – recorded beside Ecoli rRNA inh, whose call it bears; RFP signal change, %; measured here: RFP humanized mutant strains;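 first replicate; 0 = DMSO median and -100 = no signal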
Numbers without * were called inactive; i = inactive; + = active, no number; & = joins results of further samples.

SMILES	Ecoli rRNA inh	Ecoli rRNA inh OD600	Ecoli rRNA inh RFP	FGF22 binding
COc1ccc(NC(=O)Nc2ccc3c(c2)C(=O)N([C@H](C)CO)C[C@H](C)[C@H](CN(C)C(=O)NC2CCCCC2)OCCCC[C@H](C)O3)cc1	-3	4	-2.7	i
CCCC(=O)N1CC2(C1)CN(Cc1ccc(Cl)cc1)[C@@H](CO)c1[nH]c3cc(OC)ccc3c12	-3	-2	8.9	i
CCC(=O)N1[C@H](CO)[C@@H]2c3ccccc3N(C(=O)c3ccncc3)C[C@@H]21	4	11	-3.5	i
C[C@H](O)C#Cc1cnc2c(c1)C(=O)N([C@@H](C)CO)C[C@@H](C)[C@@H](CN(C)C(=O)CN1CCOCC1)O2	-2	-4	-1.4	i
C[C@@H]1CN([C@H](C)CO)C(=O)c2cc(NC(=O)C3CCCCC3)ccc2O[C@@H](C)CCCCO[C@H]1CN(C)Cc1ccncc1	2	2	1.6	i
C[C@H]1CN([C@@H](C)CO)C(=O)c2cc(NS(=O)(=O)c3cn(C)cn3)ccc2O[C@@H]1CN(C)Cc1ccc(Cl)c(Cl)c1	-4	-13	1.7	i
CO[C@H]1CN(C)C(=O)c2cc(NS(=O)(=O)CC(F)(F)F)ccc2OC[C@@H](C)N(Cc2ccccn2)C[C@@H]1C	-1	0	0.7	i
COc1ccc(S(=O)(=O)Nc2ccc3c(c2)C(=O)N([C@H](C)CO)C[C@H](C)[C@H](CN(C)C(=O)Nc2ccccc2)OCCCC[C@@H](C)O3)cc1	2	8	-0.8	i
C[C@@H]1CN([C@H](C)CO)C(=O)c2cc(-c3ccccc3F)cnc2O[C@H]1CN(C)Cc1ccccc1	6	4	-1.8	i
C[C@@H]1CCCCO[C@H](CN(C)Cc2ccc(C(=O)O)cc2)[C@H](C)CN([C@@H](C)CO)C(=O)c2cc(NC(=O)Nc3ccc4c(c3)OCO4)ccc2O1	-1	6	-0.6	i
C[C@@H]1CN([C@H](C)CO)C(=O)c2cc(C3=CCCC3)cnc2O[C@H]1CN(C)Cc1ccccc1	-2	-7	-0.9	i
C[C@@H]1CN([C@@H](C)CO)C(=O)Cc2cc(NC(=O)Cn3cnnn3)ccc2O[C@@H]1CN(C)Cc1ccc(-c2ccccc2)cc1	3	-7	7.6	i
C/C=C/c1ccc(C2[C@H]3CNC[C@@H]2N3C(=O)Nc2cccc(OC)c2)cc1 (stereo partly drawn)	6&3	3&30	4.4&0.5	i
CC(C)NC(=O)Nc1ccc2c(c1)C(=O)N([C@H](C)CO)C[C@H](C)[C@@H](CN(C)Cc1ccccc1)OCCCC[C@@H](C)O2	2	7	-1.8	i
CCNC(=O)C[C@@H]1CC[C@H]2[C@@H](COC[C@@H](O)CN2Cc2ccc(Cl)c(Cl)c2)O1	-5	2	-3.8	i
CCNC(=O)Nc1ccc2c(c1)C(=O)N(C)[C@H]1CC[C@H](CC(=O)NCCN3CCCC3)O[C@@H]1CO2	4	3	-1.1	i
C[C@@H]1CN([C@H](C)CO)C(=O)Cc2cc(NC(=O)CCC(F)(F)F)ccc2O[C@H]1CN(C)Cc1ccc(C(F)(F)F)cc1	-3	-1	1.3	i
Cc1noc(C)c1S(=O)(=O)N(C)C[C@H]1OCc2cn(nn2)CCCC(=O)N([C@H](C)CO)C[C@H]1C	6	2	-1.4	i
C[C@H]1CN([C@@H](C)CO)C(=O)c2cc(NC(=O)CCN3CCOCC3)ccc2O[C@@H]1CN(C)Cc1ccncc1	-1	5	-3.0	i
CC(=O)N(C)C[C@@H]1Oc2ncc(C#CCc3ccccc3)cc2C(=O)N([C@H](C)CO)C[C@H]1C	-4	-6	-1.7	i
C[C@@H]1CN([C@H](C)CO)C(=O)c2cc(NC(=O)CCC(F)(F)F)ccc2O[C@@H](C)CCCCO[C@H]1CN(C)S(=O)(=O)c1cccs1	-2	-7	2.1	i
C[C@@H]1CCCCO[C@@H](CN(C)Cc2ccc3c(c2)OCO3)[C@@H](C)CN([C@H](C)CO)C(=O)c2cc(NS(=O)(=O)c3cccs3)ccc2O1	0	-6	0.9	i
C[C@@H]1CN([C@H](C)CO)C(=O)CCCn2cc(nn2)CO[C@@H]1CN(C)Cc1ccncc1	-1	11	-1.6	i
O=C(C[C@@H]1CC[C@H]2NC[C@H](O)COC[C@@H]2O1)NCCc1ccccc1	-4	4	-0.7	i
Clc1cc(Cl)cc(CN2CCN(c3ncc(Cc4ccccc4)cn3)CC2)c1	17	8	12	i
C[C@H]1CN([C@@H](C)CO)C(=O)c2cc(NC(=O)Nc3cccc4ccccc34)ccc2O[C@@H]1CN(C)Cc1ccccc1	-1	-2	11	i
CC(C)CC#Cc1cnc2c(c1)C(=O)N([C@@H](C)CO)C[C@@H](C)[C@@H](CN(C)C(=O)CN1CCOCC1)O2	5	-1	-1.3	i
C[C@@H]1CN([C@H](C)CO)C(=O)c2cccc(N(C)C)c2O[C@H]1CN(C)C(=O)Nc1ccccc1	2	9	-0.2	i
CN1CCN(C(=O)C[C@H]2C[C@H]3c4cc(NC(=O)Nc5ccc(C(F)(F)F)cc5)ccc4O[C@H]3[C@H](CO)O2)CC1	-57	-78	-19	i
CO[C@H]1CN(C)C(=O)c2cc(NC(=O)Nc3ccccc3F)ccc2OC[C@H](C)N(C)C[C@@H]1C	4	0	-2.6	i
C[C@H](CO)N1C[C@H](C)[C@H](CN(C)Cc2ccc(F)cc2)Oc2ncc(C#CCN(C)C)cc2C1=O	6	0	-4.8	i
Cc1noc(C)c1NC(=O)Nc1ccc2c(c1)C(=O)N([C@@H](C)CO)C[C@@H](C)[C@H](CN(C)C(=O)C1CCCCC1)OCCCC[C@@H](C)O2	-3	-1	0.0	i
COc1ccc2c3c([nH]c2c1)[C@H](CO)N(C(=O)Nc1ccc(F)cc1)CC31CN(C(=O)Cc2ccncc2)C1	0	8	2.5	i
C[C@H]1CN([C@@H](C)CO)C(=O)c2cc(C3=CCCCC3)cnc2O[C@@H]1CN(C)C(=O)Nc1cccc(F)c1	-1	-16	2.8	i
COCC(=O)N1[C@H](C#N)[C@H](c2ccccc2-c2cccc(OC)c2)[C@H]1CO	6	17	4.9	i
Cc1cccc(S(=O)(=O)N[C@H]2CC[C@@H](CCNC(=O)Nc3cc(F)ccc3F)O[C@@H]2CO)c1	-6	-12	0.1	i
COc1ccccc1NC(=O)N[C@H]1CC[C@H](CCn2cc(-c3ccccc3)nn2)O[C@@H]1CO	-3	-1	3.4	i
O=C(C[C@@H]1CC[C@@H]2[C@H](COC[C@H](O)CN2Cc2ccc(Cl)cc2)O1)Nc1nccs1	-7	-8	0.0	i
O=C(CN1CCOCC1)N1[C@@H](CO)[C@@H]2c3ccccc3NC[C@@H]21	-2	-6	-2.8	i
COC(=O)C[C@H]1C[C@H]2c3cc(NS(=O)(=O)c4ccccc4)ccc3O[C@H]2[C@H](CO)O1	-6	-25	1.8	i
O=C(Nc1ccc(F)cc1)N[C@H]1CC[C@H](CC(=O)N2CCOCC2)O[C@H]1CO	-3	-3	-0.5	i
C[C@@H]1CN([C@H](C)CO)C(=O)c2cc(NC(=O)Nc3ccccc3)ccc2O[C@@H]1CN(C)S(=O)(=O)c1cccs1	-1	-18	-0.7	i
O=C(NC1CCCCC1)[C@@H]1[C@@H](CO)[C@@H]2Cn3c(cccc3=O)[C@@H]2N1CC1CCCCC1	-6	-27	1.2	i
C[C@@H]1CN([C@@H](C)CO)C(=O)c2cc(/C=C/c3ccccc3)cnc2O[C@@H]1CN(C)S(=O)(=O)c1ccccc1	2	-11	1.9	i
CCCNC(=O)N1CCC2(CC1)CN(C(=O)CCC)[C@H](CO)c1[nH]c3cc(OC)ccc3c12	2	7	-2.5	i
COc1ccc2c3c(n(C)c2c1)[C@@H](CO)N(Cc1nccs1)CC31CN(C(=O)CN(C)C)C1	1	-4	-1.4	i
OC[C@@H]1[C@H](c2ccc(Br)cc2)[C@@H]2CN(Cc3cncnc3)CCCCN12	9	7	2.3	+
C[C@H](NC(=O)N(C)C[C@@H]1OCc2ccccc2-c2ccccc2C(=O)N([C@@H](C)CO)C[C@H]1C)c1ccccc1	0	10	-1.2	i
CCCNC(=O)C[C@H]1CC[C@@H]2[C@H](COC[C@H](O)CN2C(=O)c2cccnc2)O1	1	11	-2.4	i
Cc1noc(C)c1NC(=O)N(C)C[C@H]1Oc2ccc(NC(=O)NC3CCCCC3)cc2C(=O)N([C@@H](C)CO)C[C@H]1C	0	10	2.4	i
C[C@H]1CN([C@@H](C)CO)C(=O)c2cc(NS(=O)(=O)c3cccs3)ccc2O[C@@H]1CN(C)Cc1ccc(C(=O)Nc2ccccc2N)cc1	9	2	-0.2	i
C[C@H]1CN([C@@H](C)CO)C(=O)c2cccc(NC(=O)C3CCCCC3)c2O[C@@H]1CN(C)C(=O)Nc1ccccc1	0	-6	-1.3	i
CCC(=O)N1CC[C@@H]2[C@H]1c1cc(C#Cc3ccc(OC)cc3)ccc1N[C@@H]2CO	-9	-9	1.9	i
COc1ccccc1NC(=O)N[C@H]1CC[C@@H](CCn2cc(-c3ccccc3)nn2)O[C@@H]1CO	-1	2	-0.7	i

By substructure, those above with a halogen.
SMILES	Ecoli rRNA inh	Ecoli rRNA inh OD600	Ecoli rRNA inh RFP	FGF22 binding
CCCC(=O)N1CC2(C1)CN(Cc1ccc(Cl)cc1)[C@@H](CO)c1[nH]c3cc(OC)ccc3c12	-3	-2	8.9	i
C[C@H]1CN([C@@H](C)CO)C(=O)c2cc(NS(=O)(=O)c3cn(C)cn3)ccc2O[C@@H]1CN(C)Cc1ccc(Cl)c(Cl)c1	-4	-13	1.7	i
CO[C@H]1CN(C)C(=O)c2cc(NS(=O)(=O)CC(F)(F)F)ccc2OC[C@@H](C)N(Cc2ccccn2)C[C@@H]1C	-1	0	0.7	i
C[C@@H]1CN([C@H](C)CO)C(=O)c2cc(-c3ccccc3F)cnc2O[C@H]1CN(C)Cc1ccccc1	6	4	-1.8	i
CCNC(=O)C[C@@H]1CC[C@H]2[C@@H](COC[C@@H](O)CN2Cc2ccc(Cl)c(Cl)c2)O1	-5	2	-3.8	i
C[C@@H]1CN([C@H](C)CO)C(=O)Cc2cc(NC(=O)CCC(F)(F)F)ccc2O[C@H]1CN(C)Cc1ccc(C(F)(F)F)cc1	-3	-1	1.3	i
C[C@@H]1CN([C@H](C)CO)C(=O)c2cc(NC(=O)CCC(F)(F)F)ccc2O[C@@H](C)CCCCO[C@H]1CN(C)S(=O)(=O)c1cccs1	-2	-7	2.1	i
Clc1cc(Cl)cc(CN2CCN(c3ncc(Cc4ccccc4)cn3)CC2)c1	17	8	12	i
CN1CCN(C(=O)C[C@H]2C[C@H]3c4cc(NC(=O)Nc5ccc(C(F)(F)F)cc5)ccc4O[C@H]3[C@H](CO)O2)CC1	-57	-78	-19	i
CO[C@H]1CN(C)C(=O)c2cc(NC(=O)Nc3ccccc3F)ccc2OC[C@H](C)N(C)C[C@@H]1C	4	0	-2.6	i
C[C@H](CO)N1C[C@H](C)[C@H](CN(C)Cc2ccc(F)cc2)Oc2ncc(C#CCN(C)C)cc2C1=O	6	0	-4.8	i
COc1ccc2c3c([nH]c2c1)[C@H](CO)N(C(=O)Nc1ccc(F)cc1)CC31CN(C(=O)Cc2ccncc2)C1	0	8	2.5	i
C[C@H]1CN([C@@H](C)CO)C(=O)c2cc(C3=CCCCC3)cnc2O[C@@H]1CN(C)C(=O)Nc1cccc(F)c1	-1	-16	2.8	i
Cc1cccc(S(=O)(=O)N[C@H]2CC[C@@H](CCNC(=O)Nc3cc(F)ccc3F)O[C@@H]2CO)c1	-6	-12	0.1	i
O=C(C[C@@H]1CC[C@@H]2[C@H](COC[C@H](O)CN2Cc2ccc(Cl)cc2)O1)Nc1nccs1	-7	-8	0.0	i
O=C(Nc1ccc(F)cc1)N[C@H]1CC[C@H](CC(=O)N2CCOCC2)O[C@H]1CO	-3	-3	-0.5	i
OC[C@@H]1[C@H](c2ccc(Br)cc2)[C@@H]2CN(Cc3cncnc3)CCCCN12	9	7	2.3	+

Some of the compounds tested, so the mix of outcomes need not match the whole.
